From PubChem BioAssay
HIV Env fusion = blocks HIV Env-driven cell-cell fusion; hit rate 1.1% among 360,000; HeLa-JRFL Env/CEM21 cell fusion, luciferase; inhibition, % at 12.3 µM;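 active means mean replicate inhibition score of at least 50 and every replicate individually at or above 50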;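 further: 0% = plate neutral controls and 100% = maraviroc near 300 nM; one replicate is shown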
eIF4H inh = inhibitors of RNA binding by human eIF4H; Q15056; eIF4H fluorescence polarization binding assay; inhibition, % at 35 µM; hit rate 0.94% among 290,000;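 active means 50% or more with normal probe brightness, or confirmed in later tests; about a fifth of its hits are not listed in these tables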;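 further: calls also rest on retests at 20 µM and on dose response follow-up; 0% = protein and probe with vehicle and 100% = probe without protein; strong numbers were not always called active; many hits fall short of the cut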
Rce1 inhib = blocks yeast Ras-converting enzyme; calls only; hit rate 0.27% among 290,000; yeast membranes, quenched prenylated peptide cleavage fluorescence; AID 2563;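 active means fall in fluorescence gain of 50% or more versus controls, with final raw signal at or below 3038400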;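 further: plate controls were neutral control wells for no effect and wells lacking membranes for full effect; tested at 10 µM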
Target sequence (Q03530 whole entry, looked up): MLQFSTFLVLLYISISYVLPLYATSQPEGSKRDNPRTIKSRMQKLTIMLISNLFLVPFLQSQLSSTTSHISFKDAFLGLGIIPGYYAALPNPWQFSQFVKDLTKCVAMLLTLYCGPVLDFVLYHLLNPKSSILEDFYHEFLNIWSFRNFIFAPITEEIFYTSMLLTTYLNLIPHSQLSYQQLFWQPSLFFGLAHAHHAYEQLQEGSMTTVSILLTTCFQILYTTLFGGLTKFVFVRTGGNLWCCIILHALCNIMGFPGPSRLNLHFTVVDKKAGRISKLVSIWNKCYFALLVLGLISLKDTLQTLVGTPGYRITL
MT1-MMP act inh = blocks activation of human MT1-MMP; P50281; GFP/RFP ratio change, % at 20 µM; AID 651647; HT1080 RFP-PRO-GFP cells, GFP/RFP ratio fluorescence, overnight; percent of plate control window, DMSO zero; hit rate 0.061% among 360,000;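 active means GFP/RFP ratio change of at least 30% with cell ATP level not reduced by more than half and red fluorescence within 50% of control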; further: strong numbers were not always called active
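Compound: 20 µM single dose, 1% DMSO / System: HT1080 RFP-PRO-GFP cells / Controls: DMSO and RFP-L50D-GFP cell wells / Read-out basis: GFP/RFP fluorescence ratio / Schedule: overnight compound exposure at 37 °C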
PABP polyA inh = blocks human PABP binding to poly(A) RNA; P11940; fluorescence polarization; hit rate 1% among 290,000; AID 2014; inhibition, % at 35 µM;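 active means 50% or more with normal probe brightness, or confirmed in later tests; about a fifth of its hits are not listed in these tables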;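 further: calls also rest on retests at 20 µM and on dose response follow-up; controls were probe without protein and protein plus probe with vehicle; some compounds called inactive have numbers as strong as hits; many hits fall short of the cut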
Target sequence (P11940 whole entry, looked up): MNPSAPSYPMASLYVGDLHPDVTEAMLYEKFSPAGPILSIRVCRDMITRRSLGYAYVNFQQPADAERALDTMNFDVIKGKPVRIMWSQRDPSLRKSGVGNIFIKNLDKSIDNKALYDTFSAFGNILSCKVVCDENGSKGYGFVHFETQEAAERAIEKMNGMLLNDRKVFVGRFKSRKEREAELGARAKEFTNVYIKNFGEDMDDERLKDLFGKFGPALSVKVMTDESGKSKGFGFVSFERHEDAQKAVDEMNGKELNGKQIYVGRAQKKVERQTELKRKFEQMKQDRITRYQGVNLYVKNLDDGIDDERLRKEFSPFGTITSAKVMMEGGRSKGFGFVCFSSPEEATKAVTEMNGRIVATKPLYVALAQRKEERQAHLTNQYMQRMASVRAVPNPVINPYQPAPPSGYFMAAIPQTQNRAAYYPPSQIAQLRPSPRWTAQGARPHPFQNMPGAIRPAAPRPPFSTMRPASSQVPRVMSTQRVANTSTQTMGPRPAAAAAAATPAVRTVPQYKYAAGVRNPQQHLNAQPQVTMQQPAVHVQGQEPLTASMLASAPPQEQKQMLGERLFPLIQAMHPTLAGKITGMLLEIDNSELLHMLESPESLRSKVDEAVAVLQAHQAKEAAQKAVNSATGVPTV
Yeast UUG start = modulators of start codon recognition fidelity in yeast | activity score, % at 18.7 µM | S. cerevisiae UUG-firefly luciferase reporter, luminescence/redox ratio | hit rate 0.13% among 350,000;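 active means replicate mean at a twofold rise or more, about +100% in these data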;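 further: firefly luciferase made from a UUG start codon reports start codon fidelity; reporter light over untreated wells divided by growth signal over untreated wells; some hits fall short of that in this replicate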
CSC inhib = cancer stem cell inhibition | cancer stem cell-like cells viability, luminescence | inhibition, % at 7.5 µM | hit rate 1.1% among 300,000 | AID 2717;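 active means mean at 75% or more and at least half the replicates too; tested in HMLE shEcad cells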;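 further: 0% = median of negative and 100% = median of positive control wells; the first replicate is given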
MT1-MMP act inh RFP = second read-out of MT1-MMP act inh, no call of its own (marks repeat the call); RFP signal change, %; measured here: RFP expression control read;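 0 = vehicle wells; hits needed this value within 50% of zero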
The depositor's hits bear a star; & = joins results of further samples; [ ] = dose if it differs, or a comment.

`CCOc1ccc(C(C)NC(=O)Nc2ccccc2C(=O)OC)cc1` (stereo not drawn) gave HIV Env fusion -1, eIF4H inh 6, Rce1 inhib inactive, MT1-MMP act inh -4, PABP polyA inh 4, Yeast UUG start 9, CSC inhib -15 and MT1-MMP act inh RFP -5.
`Nc1cc(=O)[nH]c(=O)n1Cc1ccccc1` gave HIV Env fusion -1[16.7 µM], eIF4H inh -4, Rce1 inhib inactive, MT1-MMP act inh 3, PABP polyA inh -5, Yeast UUG start -4&-11, CSC inhib -10 and MT1-MMP act inh RFP 2.
CCN(Cc1cc2ccccc2[nH]c1=O)C(=O)C1CCCCC1 was read as HIV Env fusion -59, eIF4H inh -2, Rce1 inhib inactive, MT1-MMP act inh 4, PABP polyA inh -3, Yeast UUG start -10, CSC inhib 2 and MT1-MMP act inh RFP -4.
OC1c2cc(Cl)cc(Cl)c2N=C2CCCN21 (stereo not drawn) was read as HIV Env fusion 10, MT1-MMP act inh 0, Yeast UUG start -9 and MT1-MMP act inh RFP 2.
`CCn1ncc(C2=NOC(C(=O)Nc3c(C)nn(Cc4ccc(F)cc4)c3C)C2)c1C` (stereo not drawn) gave HIV Env fusion -1, eIF4H inh -2, Rce1 inhib inactive, MT1-MMP act inh -1, PABP polyA inh 2, Yeast UUG start -10, CSC inhib -13 and MT1-MMP act inh RFP -19.
`Cc1cccc(N2CCN(c3nnc(C(F)(F)F)s3)CC2)c1` gave HIV Env fusion -4, eIF4H inh 0, Rce1 inhib inactive, MT1-MMP act inh 0, PABP polyA inh -6, CSC inhib -3 and MT1-MMP act inh RFP -2.
`CCNS(=O)(=O)c1ccc(S(=O)(=O)N(Cc2ccccn2)C2CCCCC2)cc1` gave HIV Env fusion -39, eIF4H inh -12, Rce1 inhib inactive, MT1-MMP act inh 4, PABP polyA inh -6, Yeast UUG start -7 and MT1-MMP act inh RFP 0.
`OCCNc1cc(-n2nc(-c3ccccc3)cc2-c2ccccc2)ncn1` gave HIV Env fusion 21, eIF4H inh 4, Rce1 inhib inactive, MT1-MMP act inh -1, PABP polyA inh 0, Yeast UUG start -38, CSC inhib -4 and MT1-MMP act inh RFP 1.
Cc1ccc(-c2nnc(Nc3ccc(CC(N)=O)cc3)c3ccccc23)cc1S(N)(=O)=O was read as HIV Env fusion -11, eIF4H inh 9, Rce1 inhib inactive, MT1-MMP act inh -1, PABP polyA inh 14, Yeast UUG start -8, CSC inhib -10 and MT1-MMP act inh RFP 2.
`Oc1ccc(Cl)cc1CNCc1cccc2ccccc12` gave HIV Env fusion -35, MT1-MMP act inh 1, Yeast UUG start -7, CSC inhib 30 and MT1-MMP act inh RFP 3.
`Cn1cccc1/C=N/NC(=O)CNc1cccc2ccccc12` gave HIV Env fusion -1, eIF4H inh -6, Rce1 inhib inactive, MT1-MMP act inh 0, PABP polyA inh -12, Yeast UUG start -7, CSC inhib 4 and MT1-MMP act inh RFP 2.
Screening CCOc1cc(C(=O)Nc2c(C)ccc3nsnc23)cc(OCC)c1OCC returned HIV Env fusion -13, eIF4H inh -1, Rce1 inhib inactive, MT1-MMP act inh 3, PABP polyA inh -9, Yeast UUG start 0, CSC inhib -3 and MT1-MMP act inh RFP 3.
CC(=O)c1c(C)[nH]c(C(=O)OCC(=O)Nc2cccc(S(=O)(=O)N(C)C)c2)c1C was read as HIV Env fusion 11, eIF4H inh 5, Rce1 inhib inactive, MT1-MMP act inh 7, PABP polyA inh 3, Yeast UUG start -5, CSC inhib -3 and MT1-MMP act inh RFP -23.
For Fc1ccccc1N1CCN(Cc2nc(-c3ccc(Cl)cc3Cl)no2)CC1 the results were HIV Env fusion -56, eIF4H inh 2, MT1-MMP act inh 2, PABP polyA inh -5, Yeast UUG start -1, CSC inhib 17 and MT1-MMP act inh RFP 4.
For CC1CN(C(=S)Nc2cccc(F)c2)CC(C)O1 (stereo not drawn) the results were HIV Env fusion -21, eIF4H inh -4, Rce1 inhib inactive, MT1-MMP act inh 1, PABP polyA inh 1, Yeast UUG start -6, CSC inhib -12 and MT1-MMP act inh RFP 1.
Cc1ccccc1NC(=O)COC(=O)CCc1ccccc1 was read as HIV Env fusion 13, eIF4H inh 14, Rce1 inhib inactive, MT1-MMP act inh 4, PABP polyA inh -8, CSC inhib -8 and MT1-MMP act inh RFP 5.
Screening O=C1C2CC=CCC2C(=O)N1c1ccc(N2CCN(c3ccccn3)CC2)c([N+](=O)[O-])c1 (stereo not drawn) returned HIV Env fusion 2, eIF4H inh 9, Rce1 inhib inactive, MT1-MMP act inh 7, PABP polyA inh 4, CSC inhib 55 and MT1-MMP act inh RFP -11.
`CCCCn1c(SCC(=O)Nc2nnc(C)s2)nnc1-c1ccoc1C` gave eIF4H inh 1, Rce1 inhib inactive, MT1-MMP act inh -1, PABP polyA inh 0, Yeast UUG start -17, CSC inhib -18 and MT1-MMP act inh RFP 3.
For CC/C(Cc1ccccc1)=N\NC(=O)c1cc([N+](=O)[O-])cc([N+](=O)[O-])c1 the results were HIV Env fusion 12, eIF4H inh 0, MT1-MMP act inh 6, PABP polyA inh 15, Yeast UUG start -4, CSC inhib 0 and MT1-MMP act inh RFP 4.
CC(C)(C)c1ccccc1NC(=O)c1cc(-c2ccncc2)nc2ccccc12 was read as HIV Env fusion 16, MT1-MMP act inh -5, Yeast UUG start -18, CSC inhib -4 and MT1-MMP act inh RFP -1.
Screening CC(=O)Nc1ccc(NC(=O)CSc2nc(=O)n(CCCN3CCOCC3)c3c2CCC3)cc1 returned HIV Env fusion 2, MT1-MMP act inh -1, Yeast UUG start -5 and MT1-MMP act inh RFP 6.
Screening COc1cc(/C=N/NC(=O)Cn2ccc(C(F)(F)F)n2)cc(OC)c1OC returned HIV Env fusion 7, eIF4H inh 21, Rce1 inhib inactive, MT1-MMP act inh 0, PABP polyA inh -2, CSC inhib -2 and MT1-MMP act inh RFP 6.
For O=C(COC(=O)/C=C/c1ccc(Cl)c(Cl)c1)NC1CCS(=O)(=O)C1 (stereo not drawn) the results were HIV Env fusion -8, MT1-MMP act inh 2, Yeast UUG start 2 and MT1-MMP act inh RFP 6.
`CCC1CCCCN1Cc1c(O)ccc2c(=O)c(-c3ccccc3)coc12` (stereo not drawn) gave HIV Env fusion 23, eIF4H inh -5, Rce1 inhib inactive, MT1-MMP act inh -4, PABP polyA inh -2, Yeast UUG start 11, CSC inhib -3 and MT1-MMP act inh RFP -8.
Screening O=C(Nc1ccccc1NC(=O)c1ccc(F)cc1)c1ccc(F)cc1 returned HIV Env fusion 6, eIF4H inh -10, Rce1 inhib inactive, MT1-MMP act inh 0, PABP polyA inh -6, Yeast UUG start -10, CSC inhib -12 and MT1-MMP act inh RFP 2.
Screening CCOc1cccc2cc(-c3nnc(NCc4ccc5c(c4)OCO5)s3)c(=O)oc12 returned eIF4H inh -12, Rce1 inhib inactive, MT1-MMP act inh -13, PABP polyA inh -14, Yeast UUG start -7, CSC inhib 36 and MT1-MMP act inh RFP -4.
For Cc1cccc(N2CCN(c3nc4nonc4nc3N3CCSCC3)CC2)n1 the results were HIV Env fusion 3, eIF4H inh -12, Rce1 inhib inactive, MT1-MMP act inh -2, PABP polyA inh 2, Yeast UUG start -10, CSC inhib -27 and MT1-MMP act inh RFP -1.
Cc1ccc(OCc2cc(C(=O)N3CCc4sccc4C3)no2)cc1C was read as HIV Env fusion -6, eIF4H inh 0, Rce1 inhib inactive, MT1-MMP act inh -1, PABP polyA inh -4, Yeast UUG start -21, CSC inhib 12 and MT1-MMP act inh RFP 3.
`CCCCn1c(N)c(N(CCOC)C(=O)CN2c3ccccc3CC2C)c(=O)[nH]c1=O` (stereo not drawn) gave HIV Env fusion 5, eIF4H inh 3, Rce1 inhib inactive, MT1-MMP act inh -23, PABP polyA inh 7, CSC inhib -15 and MT1-MMP act inh RFP 3.
For COc1ccc(S(=O)(=O)Nc2cc(C)c(O)cc2C(C)C)cc1 the results were HIV Env fusion -20, eIF4H inh 3, Rce1 inhib inactive, MT1-MMP act inh 3, PABP polyA inh -14, Yeast UUG start -8, CSC inhib -3 and MT1-MMP act inh RFP -1.
`O=c1[nH]c(=O)n(Cc2ccco2)c2c1C(C(F)(F)F)(C(F)(F)F)N=C(Cc1ccccc1)N2` gave HIV Env fusion -138, eIF4H inh -8, Rce1 inhib inactive, MT1-MMP act inh -46, PABP polyA inh -4, Yeast UUG start -7, CSC inhib -11 and MT1-MMP act inh RFP -33.
CCOC(=O)c1ccc(NC(=O)C2CC3CCC2C3)cc1 (stereo not drawn) was read as HIV Env fusion -248, Rce1 inhib inactive, MT1-MMP act inh 1, Yeast UUG start -38, CSC inhib 2 and MT1-MMP act inh RFP 0.
For COc1ccccc1-c1cc(C(=O)NC(C)c2ccccc2)no1 (stereo not drawn) the results were HIV Env fusion -2, eIF4H inh 13, Rce1 inhib inactive, MT1-MMP act inh 3, PABP polyA inh 9, Yeast UUG start -23 and MT1-MMP act inh RFP -4.
For CCCCn1c(N)c(N(CC)C(=O)COc2ccc(C#N)cc2)c(=O)[nH]c1=O the results were HIV Env fusion 11, MT1-MMP act inh -1, Yeast UUG start -9, CSC inhib -16 and MT1-MMP act inh RFP 5.
`CCOc1ccc(/C=C/C(=O)Nc2ccc(C(N)=O)cc2)cc1OC` gave eIF4H inh 12, Rce1 inhib inactive, MT1-MMP act inh 5, PABP polyA inh 12, CSC inhib -11 and MT1-MMP act inh RFP 5.
O=S(=O)(c1ccc(Oc2ccccc2)cc1)N1CCOCC1 was read as HIV Env fusion 11, eIF4H inh -3, Rce1 inhib inactive, MT1-MMP act inh 2, PABP polyA inh -8, Yeast UUG start 7, CSC inhib -10 and MT1-MMP act inh RFP -6.
COc1cccc(-c2nnc(-c3ccco3)o2)c1 was read as HIV Env fusion -42, eIF4H inh 2, Rce1 inhib inactive, MT1-MMP act inh 0, PABP polyA inh 3, Yeast UUG start -26, CSC inhib 12 and MT1-MMP act inh RFP 0.
Cc1cc(C)cc(NC(=O)N2CCc3ccccc3C2)c1 was read as eIF4H inh -5, Rce1 inhib inactive, MT1-MMP act inh -3, PABP polyA inh -1, Yeast UUG start -8, CSC inhib 11 and MT1-MMP act inh RFP 2.
Screening CCc1cc(C(=O)Cc2ccccn2)c(O)cc1O returned HIV Env fusion 2, eIF4H inh 9, Rce1 inhib inactive, MT1-MMP act inh 9, PABP polyA inh 13, Yeast UUG start -2, CSC inhib -8 and MT1-MMP act inh RFP -2.
For c1ccc(-c2nn3nnnc3c3ccccc23)cc1 the results were eIF4H inh -10, Rce1 inhib inactive, MT1-MMP act inh 4, PABP polyA inh -2, Yeast UUG start -1, CSC inhib -10 and MT1-MMP act inh RFP -3.

Continued (2 carried over from the part before).
Screening CCc1cc(C(=O)Cc2ccccn2)c(O)cc1O returned HIV Env fusion 2, eIF4H inh 9, Rce1 inhib inactive, MT1-MMP act inh 9, PABP polyA inh 13, Yeast UUG start -2, CSC inhib -8 and MT1-MMP act inh RFP -2.
For c1ccc(-c2nn3nnnc3c3ccccc23)cc1 the results were eIF4H inh -10, Rce1 inhib inactive, MT1-MMP act inh 4, PABP polyA inh -2, Yeast UUG start -1, CSC inhib -10 and MT1-MMP act inh RFP -3.
O=C(Nc1ccc(Cl)c(C(F)(F)F)c1)C(=O)N1CCCCC1 was read as eIF4H inh -5, Rce1 inhib inactive, MT1-MMP act inh -1, PABP polyA inh -2 and MT1-MMP act inh RFP -5.
COc1ccc(OC)c(Nc2cc(-c3ccccc3)nc(N)n2)c1 was read as eIF4H inh -11, Rce1 inhib inactive, PABP polyA inh -10 and CSC inhib 53.
`CCn1cnc2cc(NS(=O)(=O)c3ccc(OC)c(OC)c3)ccc21` gave HIV Env fusion -16, eIF4H inh -6, Rce1 inhib inactive, MT1-MMP act inh -1, PABP polyA inh 3, Yeast UUG start -6, CSC inhib -3 and MT1-MMP act inh RFP 2.
`CCn1cc(CN2CCCC(C(=O)Nc3cccc(-c4cc5ccccc5[nH]4)c3)C2)cn1` (stereo not drawn) gave HIV Env fusion 0, eIF4H inh -1, Rce1 inhib inactive, MT1-MMP act inh 2, PABP polyA inh 0, Yeast UUG start -4, CSC inhib -19 and MT1-MMP act inh RFP -2.

Not all compounds are listed, so the mix of outcomes need not match the whole.
